# Screens from PubChem BioAssay.
# HSV replic up: enhancers of HSV replication in host cells, fold increase, host cell viability; HSV replication augmentation in cells; maximum fold increase; 220,000 tested, 0.005% active; AID 1956, 2009;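 active = peak rise of 1.5-fold or more in the series; tested in PC3 cells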;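 also: first round at 10 µM; read as green reporter fluorescence; hits show the peak of a series up to 25 µM; 1 = signal of infected wells without compound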
# Insulin prom inh: inhibitors of insulin promoter-driven GFP, primary screen, imaging, TRM-6 cells (human fetal islet line), eGFP reporter, cell count; reporter expression induced with tamoxifen; inhibition, % at 2 µM; 130,000 tested, 0.9% active; AID 1273, 2008;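 active = inhibition above the mean plus 3 SD, with well images judged a real hit on visual review, cut at about 60% in these data, passing the limit was not always enough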
# PKD1 kinase inh: inhibitors of human PKD1 kinase, biochemical, fluorescence polarization. inhibition, %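 (about 10 µM by stock and volumes)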. PKD1 kinase fluorescence polarization assay. 200,000 tested, 0.056% active. Serine/threonine-protein kinase D1 (Homo sapiens), Q15139;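 active = inhibition of 50% or more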;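 also: controls were vehicle for no effect and a reference inhibitor for full effect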
# GALR2 ag: GALR2 receptor agonists, primary screen, cell-based. Galanin receptor type 2 (Homo sapiens), O43603. GALR2-expressing cells, agonist activation read-out. activation, %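 (tested at 5 µM)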. 140,000 tested, 0.48% active;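 active = above mean plus 3 SD of all compounds, about 5% in these data, not always enough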;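 also: 0% = vehicle buffer wells and 100% = reference agonist at full effect; tested in CHO reporter cells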
# Target sequence (O43603 whole entry, looked up): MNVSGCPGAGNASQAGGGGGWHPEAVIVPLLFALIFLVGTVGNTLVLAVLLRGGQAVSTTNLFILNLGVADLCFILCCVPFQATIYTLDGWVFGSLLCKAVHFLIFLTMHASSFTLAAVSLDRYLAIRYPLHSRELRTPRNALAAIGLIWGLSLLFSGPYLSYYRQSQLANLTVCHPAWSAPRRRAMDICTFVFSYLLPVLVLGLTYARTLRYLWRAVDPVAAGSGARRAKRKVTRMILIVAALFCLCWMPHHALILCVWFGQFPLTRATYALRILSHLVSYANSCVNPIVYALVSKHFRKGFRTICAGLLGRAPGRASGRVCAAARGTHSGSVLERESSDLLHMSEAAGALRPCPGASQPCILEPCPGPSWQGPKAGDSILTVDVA
# RGS16-Gao: modulators of RGS16 binding to Galphao, primary screen, biochemical, human proteins, multiplexed bead flow cytometry. Regulator of G-protein signaling 16 (Homo sapiens) + Guanine nucleotide-binding protein …. bead-based flow cytometry RGS16-Galphao binding, fluorescence; actives lie on both sides. binding response (% of control), % at 10 µM. 220,000 tested, 0.38% active. AID 1441, 2008;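 active = below 25% or above 175%, edge rows of some plates excepted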;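 also: Galphao activated by GDP with aluminum fluoride before binding; 100% = wells without compound and 0% = beads without RGS; some results beyond the cut were filed as inactive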
# Target sequence (O15492 whole entry, looked up): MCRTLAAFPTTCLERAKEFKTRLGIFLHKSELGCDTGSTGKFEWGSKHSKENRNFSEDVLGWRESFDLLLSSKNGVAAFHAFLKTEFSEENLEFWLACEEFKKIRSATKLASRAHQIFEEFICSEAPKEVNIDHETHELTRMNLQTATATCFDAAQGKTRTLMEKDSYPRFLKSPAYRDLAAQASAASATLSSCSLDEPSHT
# Target sequence (P09471 whole entry, looked up): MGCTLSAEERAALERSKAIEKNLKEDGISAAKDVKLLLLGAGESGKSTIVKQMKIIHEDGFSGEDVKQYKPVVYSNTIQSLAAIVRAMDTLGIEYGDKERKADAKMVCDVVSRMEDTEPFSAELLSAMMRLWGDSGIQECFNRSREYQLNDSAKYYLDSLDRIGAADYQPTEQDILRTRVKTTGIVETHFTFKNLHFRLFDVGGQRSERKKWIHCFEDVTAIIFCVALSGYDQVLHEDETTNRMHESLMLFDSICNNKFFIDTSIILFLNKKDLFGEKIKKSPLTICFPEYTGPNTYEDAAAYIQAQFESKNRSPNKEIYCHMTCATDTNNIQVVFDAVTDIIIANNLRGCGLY
# Insulin prom inh cell count: second read-out of Insulin prom inh, no call of its own (marks repeat the call); normalized cell count, %; measured here: cell count, toxicity; reference of the scale not given here;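 cells exposed to compound for 48 h; stained nuclei by imaging scaled within each plate; lower means fewer cells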
# HSV replic up primary fold: recorded beside HSV replic up, whose call it bears; fold increase; compound at 10 µM; measured here: primary screen fold increase 10 uM; tested in PC3 cells;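 GFP signal in the first replicate; 1 = infected wells without compound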
# * hit, by the source's call; i = inactive; nt = not tested or not shown; [ ] = dose if it differs, or a comment.
SMILES,HSV replic up,HSV replic up primary fold,Insulin prom inh,Insulin prom inh cell count,PKD1 kinase inh,GALR2 ag,RGS16-Gao
CC(C)(CO)NCc1cccc(OCc2ccc(Cl)cc2)c1,i,0.8,-31,119,-12,-0.4,104
Nc1ncn(C(=O)c2ccco2)n1,i,0.83,39,83,0,-0.1,71
COc1ccc(CNC(=O)c2c(O)c3cccc4c3n(c2=O)CCC4)cc1OC,i,0.97,0,106,-8,-2.0,100
COc1cc(OC)cc(C(=O)OCc2cc3ccccc3[nH]c2=O)c1,nt,nt,71*,71*,-5,-1.7,99
Cc1ccc(C2CC(c3ccco3)n3nc(N)nc3N2)cc1 (configuration not stated),i,0.85,nt,nt,-5,-2.0,100
COC(=O)CCCCCN1C(=O)/C(=C\c2ccncc2)SC1=S,i,0.79,nt,nt,nt,nt,95
O=C(NCCc1ccccc1)c1ccc([N+](=O)[O-])cc1,nt,nt,38,90,-11,-1.0,83
O=C(/C=C/c1ccccc1Cl)N1CCN(c2ncccn2)CC1,i,0.97,21,93,0,-2.0,111
O=C(c1ccc(Cn2cc(Br)cn2)o1)N1N=C(C(F)F)CC1(O)C(F)F (configuration not stated),i,1,22,28,7,-2.3,145
NC(=S)N1OC[C@@H]2COc3ccc4ccccc4c3[C@@H]21,i,0.72,40,99,-10,nt,100
Cc1c(-c2cccs2)[n+](=O)c2c(n1[O-])CCCC2,i,0.87,nt,nt,-13,-0.8,98
Cc1onc(C(=O)NN)c1C(=O)N1CCN(C(c2ccccc2)c2ccccc2)CC1,i,1.1,82*,29*,6,nt,77
Cc1sc2nc(CSc3n[nH]c(N)n3)[nH]c(=O)c2c1C,i,1,nt,nt,-1,nt,103
COC(=O)C(O)(CC(=O)Nc1cccc(SC)c1)C(F)(F)F (configuration not stated),i,1,37,137,3,-1.4,101
CCS(=O)(=O)N1CCCC(C(=O)N2CCc3ccccc3C2)C1 (configuration not stated),nt,nt,38,166,1,-1.9,100
CN1CCN(S(=O)(=O)c2ccc3c(c2)NC(=O)C2CCCN32)CC1 (configuration not stated),i,0.87,-11,89,-4,-2.0,94
CC(CO)NCC12CC3CC(CC(C3)C1)C2 (configuration not stated),i,0.97,29,61,-7,nt,105
Cc1cc(C(=O)OCC(=O)N2CC(=O)Nc3ccccc32)c(C)n1-c1ccc(F)cc1,i,1.1,nt,nt,3,-0.1,98
Cc1ccccc1OCC(=O)Nc1sc(C(=O)Nc2cccc(C)c2C)c(C)c1C#N,i,0.95,nt,nt,-10,-1.4,87
CO/N=C(/CS(=O)(=O)c1ccc(C)cc1)c1ccc(OC)cc1,i,0.8,-3,134,-3,-1.5,100
CCOC(=O)N1CCN(Cc2nc3ccc([N+](=O)[O-])cc3c(=O)n2-c2cccc(OC)c2)CC1,i,0.8,nt,nt,4,nt,98
Nc1nnc(CC(=O)N/N=C/c2ccc([N+](=O)[O-])cc2)s1,i,0.85,nt,nt,nt,nt,103
Cc1cccc(C)c1NC(=S)N/N=C/c1ccc(C(=O)O)cc1,i,1,nt,nt,nt,nt,105
CCn1c(C)cc(/C=C2/NC(=O)N(Cc3ccccc3F)C2=O)c1C,i,1,24,96,-10,-1.5,99
Cc1nn(-c2ccccc2)c(Cl)c1C(=O)N1CCN(C)CC1,i,0.9,20,141,-4,nt,99
CC1CCCC(C)N1C(=S)SCC(=O)O (configuration not stated),i,0.9,nt,nt,2,nt,103
Cc1ccc(S(=O)(=O)Nc2nonc2C)cc1,nt,nt,24,88,-4,-0.6,29
COc1ccc(/C=N/NC(=O)CC(=O)NCc2cccnc2)c(OC)c1,i,0.91,-13,95,-1,-1.1,102
Cc1cccn2c(/C=N/OCc3cccc(F)c3)c(-c3ccc(Cl)cc3)nc12,i,1.1,39,97,-12,-1.8,99
Cc1occc1-c1nnc(SCC(=O)NCCc2ccccc2)n1C(C)c1ccccc1 (configuration not stated),i,1.1,-9,94,12,-1.6,92
Cc1ccc(C(=O)NNC(=O)OC(C)(C)C)c(Cl)c1,i,1,-54,97,-3,-0.2,82
O=C(NCc1ccccc1)N(Cc1nc2ccccc2c(=O)[nH]1)C1CCCC1,i,0.95,nt,nt,-11,-0.2,95
CCOC(=O)c1cccnc1SCC(=O)NC(C)CC (configuration not stated),i,0.97,-41,84,-8,-0.1,102
FC(F)(F)c1cccc(Cn2nnnc2-c2cccc(C(F)(F)F)c2)c1,i,0.87,nt,nt,7,-4.4,103
C#CCOCCOCCOCCNc1nc(N2CCN(C(=O)[C@H]([C@@H](C)CC)n3cc([C@@H](N)CO)nn3)CC2)nc(N2CCN(C(=O)[C@H](CCCCN)n3cc([C@@H](N)CC(C)C)nn3)CC2)n1,i,0.83,nt,nt,-2,nt,97
CC(C)(C)c1nnc2sc(SCCN3C(=O)c4ccccc4C3=O)nn2c1=O,i,1,nt,nt,-16,-2.3,99
Cc1cc(=O)oc(C)c1C(=O)NCC1CCCO1 (configuration not stated),i,0.95,-431,125,-3,-1.6,105
Cc1ccc(OCC(=O)N2CCN(C(=O)c3ccco3)CC2)cc1,i,1.1,nt,nt,-7,nt,101
CCN(CC)S(=O)(=O)c1ccc(N2CCCC2)c(NS(=O)(=O)c2ccc(OC)cc2)c1,i,0.86,57,78,1,-1.3,89
O=C(NCc1ccco1)c1ccccc1-c1nc(-c2ccc(F)cc2)no1,i,1,nt,nt,nt,nt,101
CC(C)(O)C#Cc1ccc(C(=O)N2CCN(C(=O)c3ccco3)CC2)cc1,i,1,-81,66,-11,0.1,91
O=C(CCC(=O)N(CC(=O)NC1CCCC1)C1CCCCC1)Nc1ccccn1,i,0.97,-12,132,-2,nt,96
CCOC(=O)C1=C(CSc2n[nH]c(N)n2)NC(=O)NC1C (configuration not stated),i,0.86,6,72,-10,-2.1,77
Cc1cc(NC(=O)CCC2COc3ccccc3O2)no1 (configuration not stated),i,1,-23,105,-11,-2.6,104
C=CCn1c(Oc2ccc(C(=O)OC)cc2)nc2c1c(=O)n(C)c(=O)n2C,i,1,27,114,-2,16*,99
CC(C)Oc1ccc(C(=O)Nc2cccc3cccnc23)cc1,i,0.98,nt,nt,4,nt,97
CCNC(=O)Cn1c(=O)c(=O)n(Cc2ccccc2)c2ccc(Cl)cc21,i,0.85,-21,78,2,-0.5,243*[activator]
O=C(C1=C[C@@H](c2ccc3c(c2)OCO3)C[C@@H](OCCCCO)O1)N1CCN(Cc2ccc3c(c2)OCO3)CC1,i,0.87,nt,nt,4,nt,89
O=[N+]([O-])c1ccc2c(c1)C(O)n1ncnc1S2 (configuration not stated),i,0.98,20,116,5,nt,96
Cc1c(NC(=O)CN2C(=O)NC3(CCCCC3)C2=O)c(=O)n(-c2ccccc2)n1C,i,0.8,8,97,4,nt,102
CCNC(=S)NNC(=O)c1ccc(OC)cc1,i,1.1,nt,nt,1,nt,105
Cc1ccc(/C=N/n2c(C)n[nH]c2=S)o1,i,0.76,6,98,-10,-1.8,91
Cc1ccc(/C=N/NC(=O)Nc2ccccc2)o1,i,1.1,nt,nt,-10,-1.7,154
NC(=S)Nc1nccc(-c2cccs2)n1,i,0.88,33,121,-4,nt,100
Cc1csc2ncc(C(=O)N3c4ccccc4CC3C)c(=O)n12 (configuration not stated),i,0.9,nt,nt,-3,-3.2,101
COc1ccc(Cc2nc(N)nc(N)n2)cc1,i,0.8,-11,83,3,0.7,103
CC(C)CC1NC(=S)N(C2CCCCC2)C1=O (configuration not stated),i,0.96,37,107,0,-0.3,103
COCCCNC(=S)N/N=C/c1ccc(OC)c(Br)c1,i,0.91,nt,nt,nt,nt,103
CC(/C=C/c1ccccc1F)=N\NC(=O)c1cccc(F)c1,i,0.56,13,122,-6,nt,103
CC(C)CNS(=O)(=O)c1ccc(CCC(=O)NC2CCCC2)cc1,i,0.98,nt,nt,2,nt,99

# Arranged by molar mass (ascending): 3 of the compounds above
SMILES,HSV replic up,HSV replic up primary fold,Insulin prom inh,Insulin prom inh cell count,PKD1 kinase inh,GALR2 ag,RGS16-Gao
NC(=S)N1OC[C@@H]2COc3ccc4ccccc4c3[C@@H]21,i,0.72,40,99,-10,nt,100
Cc1cc(NC(=O)CCC2COc3ccccc3O2)no1 (configuration not stated),i,1,-23,105,-11,-2.6,104
CCOC(=O)N1CCN(Cc2nc3ccc([N+](=O)[O-])cc3c(=O)n2-c2cccc(OC)c2)CC1,i,0.8,nt,nt,4,nt,98

# Returning to the listing, repeating the 7 entries before the break.
SMILES,HSV replic up,HSV replic up primary fold,Insulin prom inh,Insulin prom inh cell count,PKD1 kinase inh,GALR2 ag,RGS16-Gao
NC(=S)Nc1nccc(-c2cccs2)n1,i,0.88,33,121,-4,nt,100
Cc1csc2ncc(C(=O)N3c4ccccc4CC3C)c(=O)n12 (configuration not stated),i,0.9,nt,nt,-3,-3.2,101
COc1ccc(Cc2nc(N)nc(N)n2)cc1,i,0.8,-11,83,3,0.7,103
CC(C)CC1NC(=S)N(C2CCCCC2)C1=O (configuration not stated),i,0.96,37,107,0,-0.3,103
COCCCNC(=S)N/N=C/c1ccc(OC)c(Br)c1,i,0.91,nt,nt,nt,nt,103
CC(/C=C/c1ccccc1F)=N\NC(=O)c1cccc(F)c1,i,0.56,13,122,-6,nt,103
CC(C)CNS(=O)(=O)c1ccc(CCC(=O)NC2CCCC2)cc1,i,0.98,nt,nt,2,nt,99
O=c1oc(/C=C/c2ccco2)nc2sc3c(c12)CCC3,nt,nt,-18,40,0,-2.3,102
Cc1ccc(OCc2ccc(C(=O)Nc3nccs3)o2)cc1C,i,1,-21,131,0,-0.2,93
CCN1CCN(C(c2cccs2)C(C)NC(=O)c2ccccc2)CC1 (configuration not stated),i,0.9,nt,nt,1,-2.9,94
C=CCn1c(SCC(=O)Nc2nc3ccccc3s2)nc(O)c(CC)c1=O,i,0.97,nt,nt,nt,nt,98
O=C(NNC(=O)c1cc(C(F)(F)F)cc(C(F)(F)F)c1)c1ccc(Cl)cc1,i,1,nt,nt,nt,nt,98
O=C1N(Cc2cccc(Cl)c2)C[C@@H]2C[C@@H](c3ccccn3)N3CCC[C@@]123,i,1,nt,nt,-11,nt,98
CCCCCCCCCCCCC(=O)CCCCC(=O)O,i,0.75,nt,nt,7,nt,102
O=C1CC(c2ccccc2)Cc2nc(NCc3ccco3)ncc21 (configuration not stated),nt,nt,-23,117,-5,-2.1,106
O=C(NCC(c1cccnc1)N1CCOCC1)c1ccc2c(c1)OCO2 (configuration not stated),i,0.96,4,189,1,-1.0,104
O=C(NCCCN1CCOCC1)[C@@H]1CSC2c3ccccc3C(=O)N21 (some centres not stated),i,0.99,50,58,-9,1.2,139
O=C(COc1ccc(Br)cc1Cl)Nn1cnnc1,i,0.9,29,117,-5,nt,99
CC(=C/c1ccccc1)/C=N/NC(=O)c1ccccn1,i,0.88,nt,nt,nt,nt,95
Cn1cc(CN2CCC(O)CC2)c(-c2ccc(Oc3ccccc3)cc2)n1,i,0.95,nt,nt,1,nt,101
O=C(CCCCCN1C(=O)c2ccccc2C1=O)Nc1ccccc1,i,0.81,10,119,-2,-2.7,102
CCCCN(CC)Cc1ccc(CNC(=O)Nc2ccc(Cl)cc2)o1,i,0.81,nt,nt,8,nt,103
Cc1cc(C)n(C(=O)/C=C/c2cccs2)n1,i,1,nt,nt,nt,nt,96
O=C1CC(c2ccco2)CC2=C1C1c3ccccc3C(=O)N1c1ccccc1N2 (configuration not stated),i,0.89,-50,169,5,-0.5,100
CC1CCCCN1C(=S)NCc1ccccc1 (configuration not stated),i,1.1,nt,nt,11,-2.2,104
Clc1ccc(OCCn2cnc3ccccc32)cc1,i,0.87,0,117,-7,-2.2,97
CN(C)S(=O)(=O)c1cc(C(=O)OCCn2cnc3c2c(=O)n(C)c(=O)n3C)ccc1Cl,i,0.72,nt,nt,1,nt,100
S=C(NNC(=S)NC1CC2CCC1C2)NC1CC2C=CC1C2 (configuration not stated),i,0.93,nt,nt,nt,nt,94

# Limited to PKD1 kinase inh, for three of the compounds above:
SMILES	PKD1 kinase inh
O=C1CC(c2ccco2)CC2=C1C1c3ccccc3C(=O)N1c1ccccc1N2 (configuration not stated)	5
CC1CCCCN1C(=S)NCc1ccccc1 (configuration not stated)	11
Clc1ccc(OCCn2cnc3ccccc32)cc1	-7
